# VACV Venus inh: vaccinia inhibition (Venus reporter); Vaccinia virus Venus reporter expression, fluorescence; 330,000 compounds, 0.46% hits; Potency, µM (top dose mostly 36.5 µM), for the others: at the top dose activity change, negative = inhibition, hits mostly inhibitors; active means well fitted inhibition curve with a large enough effect; inconclusive means small, poorly fitted or top-dose-only effect; inactive means no such curve, though single readings can be large or run the other way; tested in A549 cells; also: nearly all actives have a fitted effect of over 30% in size; inactives centre near -10
# Vaccinia mCherry: inhibitors of vaccinia virus infection (mCherry reporter signal); 310,000 compounds, 0.63% hits; Potency, µM (highest dose often 36.5 µM), without a hit: at the top dose activity change, negative = inhibition, most hits filed as inhibitors; AID 720579; Vaccinia virus mCherry reporter infection, fluorescence; about a quarter of the inactives have no number; active = well fitted inhibition curve with a large enough effect; inconclusive = small, poorly fitted or top-dose-only effect; inactive = no such curve, though single readings can be large or run the other way; tested in A549 cells; also: nearly all actives have a fitted effect of over 35% in size; inactives centre near -10
# * hit, by the source's call; i = inactive; ? = inconclusive; . = not tested or not shown; & = joins results of further samples; [ ] = another dose, or the depositor's remark. % is scaled to controls: 0 for no effect and ±100 for the full control effect; potency is read from the fitted curve at half-maximal effect.
SMILES,VACV Venus inh,Vaccinia mCherry
COC(=O)[C@]12CCCCC=C1N(Cc1ccc(Cl)cc1Cl)C(=O)[C@H](CC(=O)N1CCSCC1)C2,4%,14%
C[C@]12C=CC(=O)C=C1CC[C@@H]1[C@@H]2CC[C@]2(C)C(=O)CC[C@@H]12,0%,-12%
Cn1ncc(N=Cc2c(O)ccc3ccccc23)c1C(=O)Nc1cccc(Cl)c1,-2%,?
Cc1onc(-c2c(F)cccc2Cl)c1C(=O)Nc1c(C)n(C)n(-c2ccccc2)c1=O,-8%,-1%
CCCC(=O)Nc1cccc(NC(=O)c2cccc([N+](=O)[O-])c2C)c1,-10%,i
O=S(=O)(c1ccccc1)N1CCN(Cc2ccccc2)CC1,-13%,3%
Cc1ccc(-c2cn3cc([N+](=O)[O-])ccc3n2)cc1,-26%,?
COc1ccc(-c2csc(NC(=O)[C@H](C)N3C(=O)C4CC=CCC4C3=O)n2)cc1OC (stereo partly drawn),-4%,-18%
O=C(Nc1cccc(F)c1)C1CCCN(S(=O)(=O)c2ccc(-n3cnnn3)cc2)C1 (stereo not drawn),1%,-9%
COC(=O)c1cc(S(=O)(=O)NCCc2ccccc2)c[nH]1,-4%,i
COc1ccc(NC(=O)CSc2nc3ccccc3c(=O)n2-c2ccc3c(c2)OCO3)c(OC)c1,1%,-10%
N=C1/C(=C\c2ccc(SCc3ccco3)o2)C(=O)N=C2SC=NN12,480%[activator],277%[activator]

# Reprinted at random: 3 entries already listed.
SMILES,VACV Venus inh,Vaccinia mCherry
COc1ccc(-c2csc(NC(=O)[C@H](C)N3C(=O)C4CC=CCC4C3=O)n2)cc1OC (stereo partly drawn),-4%,-18%
COC(=O)c1cc(S(=O)(=O)NCCc2ccccc2)c[nH]1,-4%,i
Cc1onc(-c2c(F)cccc2Cl)c1C(=O)Nc1c(C)n(C)n(-c2ccccc2)c1=O,-8%,-1%

# More structures follow:
SMILES,VACV Venus inh,Vaccinia mCherry
Cc1c(Cl)cccc1NC(=S)NCc1ccc(F)cc1,-7%,i
CC1(C(=O)OCC(=O)Nc2ccc3ccccc3c2)CC1(Cl)Cl (stereo not drawn),-16%,-10%
CCOC(=O)c1ccc(NC(=O)CSc2nnc(-c3ccncc3)n2-c2ccccc2)cc1,-5%,-4%
Cc1nn(-c2ccccc2)c(Cl)c1/C=N/Nc1ccc(Cl)c(C(=O)O)c1,-8%,-7%
Cc1csc(NC(=O)Cc2coc3cc(C)c(C(C)C)cc23)n1,-18%,.
Cn1nc(C(C)(C)C)cc1NC(=O)C1(C)CCN1C(=O)CCc1ccccc1 (stereo not drawn),-6%,-13%
CN(Cc1ccccc1)S(=O)(=O)c1ccc(NS(C)(=O)=O)cc1,-9%,-20%
CCN(CC)CCCNc1oc(-c2ccc(OC)cc2)nc1C#N,-1%,-12%
CN(C)Cc1cc2ccccc2c2c1COC2,6%,-10%
CCOc1cccc(-c2cc(C(=O)Nc3ccon3)c3ccccc3n2)c1,-9%,-14%
NC(=O)C1=C[C@@H](c2ccc3c(c2)OCO3)C[C@@H](OCCCCO)O1,-3%,-23%
O=C(Nc1ccc2c(c1)OCO2)C1CC(c2ccccc2O)=NO1 (stereo not drawn),-4%,-5%
COc1ccc(C(=O)NCc2ccncc2)cc1OC,-7%,i
O=C(NC1CCCC1)C(c1ccccc1)n1c(Cc2cc(F)cc(F)c2)nc2ccccc21 (stereo not drawn),-6%,-8%
COc1ccc(O)c(C(=O)CC(=O)c2ccccc2C)c1,-6%,-20%
CCc1ccc(NS(=O)(=O)c2ccc3[nH]cc(C(=O)NCCCOC(C)C)c(=O)c3c2)cc1,-9%,-14%
CC(=O)Nc1ccc(S(=O)(=O)NC(C(=O)O)C2=CCC=CC2)cc1 (stereo not drawn),-11%,-12%
OC1(c2ccc(Cl)c(Cl)c2)C[n+]2ccccc2N1Cc1ccccc1 (stereo not drawn),?,-3%
COCCNC(=O)C1(C)CCCN(C(=O)c2ccccc2OC)C1 (stereo not drawn),7%,44%[activator]
CCOC(=O)C1=NNC(C(=O)OCC)C1c1ccccc1 (stereo not drawn),-21%,i
CC[C@H](C)[C@H](NC(=O)OCc1ccccc1)C(=O)Nc1ccc(NC(C)=O)cc1,6%,-14%
O=C(C1CC(c2ccc(F)cc2)=NO1)N1CCCCC1 (stereo not drawn),-13%,-16%
COC(=O)CN(c1ccc(OCc2ccccc2)cc1)S(C)(=O)=O,-19%,-15%
O=C(Nc1ccccc1F)c1cc(S(=O)(=O)N2CCOCC2)cs1,-13%,i

# Record cards (already shown). Screens in order: VACV Venus inh | Vaccinia mCherry
# Record of `COc1ccc(C(=O)NCc2ccncc2)cc1OC` → -7% | i
# Record of `CCc1ccc(NS(=O)(=O)c2ccc3[nH]cc(C(=O)NCCCOC(C)C)c(=O)c3c2)cc1` → -9% | -14%

# Further results
SMILES,VACV Venus inh,Vaccinia mCherry
CCOC(=O)COc1ccc(S(=O)(=O)N2CCN(c3ccc(F)cc3)CC2)cc1,-7%,i
O=S(=O)(O)c1ccc2c(N=Nc3ccc(S(=O)(=O)O)c4ccccc34)c(O)c(S(=O)(=O)O)cc2c1,13%,12%
Cn1nc(-c2ccc(C(=O)NC3CCCCC3)cc2)c2ccccc2c1=O,-14%,-4%
CC1=NN(c2ccccc2)C(=O)C1/C=C1\NC(=S)NC1=O (stereo not drawn),4%,-6%
CCOc1ccc(C(=O)NCc2ccccc2)cc1Br,-9%,i
O=C(/C=C/c1ccccc1)CCN1CCOCC1,?,10µM*
COc1ccc2c(CNC3CCC(C)CC3)c(C(=O)O)n(Cc3ccc(F)cc3)c2c1 (stereo not drawn),1%,1%
C[C@H]1COC(=O)[C@@H](Cc2ccc(F)cc2)C/C=C\C[C@H](CC(=O)N(CCO)Cc2ccccc2)C(=O)N1,-17%,-9%
CN1C(=O)c2ccccc2Sc2ccc(NC(=O)N3CCN(c4ccc(F)cc4)CC3)cc21,?,?
O=C(Nc1ccc(Cl)c(Cl)c1)N[C@@H]1CC[C@@H](CCn2cc(C3CCCCC3)nn2)O[C@@H]1CO,?,i
Cc1nc2ccccc2c(=O)n1/N=C/c1c(O)ccc2oc3c(c12)CCCC3,2%,-3%
CCCCS(=O)(=O)/C=C\C1C2C=CC(C2)C1S(=O)(=O)CCCC (stereo not drawn),-8%,.
CCN(CCNC(=O)C1CCN(Cc2nc(-c3ccc(Cl)cc3)oc2C)CC1)c1ccccc1,?,13µM*
CC1CCN(CC(C)OC(=O)c2ccco2)CC1 (stereo not drawn),-1%,-2%
CSC(=S)N/N=C/c1ccc(N(C)C)cc1,-4%,-6%
CCOC(=O)c1ccccc1NC(=O)COC(=O)c1c(CC)noc1C,-7%,-1%
CC1(c2ccc3ccccc3c2)NC(=O)N(CC(=O)NCc2cccs2)C1=O (stereo not drawn),-13%,i
S=C(Nc1ccc(Cl)cc1)c1sc(N2CCCCC2)nc1N1CCOCC1,-6%,-15%
O=C(O)Cn1cnc2sc3c(c2c1=O)CCCC3,0%,-8%
CCOc1ccccc1N1CCN(C(=O)c2ccc3[nH]c4c(c3c2)CCCC4)CC1,?,-26%
Cc1cccc(NC(=O)Cn2c(=O)n(CCc3ccccc3)c(=O)c3sc4ccccc4c32)c1,-26%,-27%
Cc1ccc2sc(N3CCN(CCNC(=O)c4ccco4)CC3)nc2c1C,-16%,-27%
Cc1cc(NC(=O)c2ccc(C#N)cc2)on1,-16%,i
Cc1cc(C)c2[nH]c(O)c(N=NC(=S)NCC3CCCO3)c2c1 (stereo not drawn),-15%,-21%
CCCN=C1N(C)C[C@@H]2[C@@H]3C(=O)N(C)C(=O)[C@@H]3[C@](C)(C(=O)OC)N12,-3%,-10%
CCOC(=O)CNc1nc(Cl)nc(Nc2ccccc2)n1,-16%,-9%
Cc1ccc(S(=O)(=O)N(C)CCCC(=O)n2nc(C)cc2C)cc1,-15%,-19%
Cc1nccn1CC(O)COc1ccc([N+](=O)[O-])cc1 (stereo not drawn),-10%,-25%
O=C(O)c1ccc(NC(=O)c2cc3ccccc3o2)cc1,-2%,-14%
CN(C)CCCCSC(=N)N,-6%,-4%
Cc1ccc(-n2ncc3c(SCc4cccnc4)ncnc32)c(C)c1,-18%,-28%
CCn1c(CNC(=O)c2ccc3c(c2)OCO3)nnc1SCC(=O)Nc1cc(C)ccc1OC,?,.
C=CCNC(=S)NNC(=O)c1ccc(OCCCC)cc1,?,-15%[1.46 µM]
Cn1nc([N+](=O)[O-])nc1N1CCOCC1,-15%,-2%
COC(=O)c1cc(NC(=O)CN(c2ccccc2OC)S(=O)(=O)c2ccccc2)ccc1Cl,?,-20%[1.46 µM]
CCOCCn1c(=NC(=O)c2cc3ccccc3oc2=O)sc2cc(S(N)(=O)=O)ccc21,-18%,-14%

# A second format for some results above:
SMILES | VACV Venus inh | Vaccinia mCherry
C=CCNC(=S)NNC(=O)c1ccc(OCCCC)cc1 | ? | -15%[1.46 µM]
Cn1nc([N+](=O)[O-])nc1N1CCOCC1 | -15% | -2%

# The listing continues:
SMILES,VACV Venus inh,Vaccinia mCherry
COC(=O)[C@H]1C[C@@]2(O)CN(S(=O)(=O)c3ccc(C)cc3)C[C@@]2(OC(=O)NCc2ccccc2F)C[C@H]1C(=O)OC,-14%,-10%
O=C(CSc1nc(-c2ccccc2F)nc2cc(=O)[nH]n12)Nc1cccc(C(F)(F)F)c1,2%,-4%
COCCNC(=S)Nc1ccc2nc(N3CCN(C)CC3)cc(C)c2c1,-23%,-15%
COc1ccc(-c2nc3ccccc3n2Cc2ccccc2)cc1,12%&-3%,-2%
COc1ccc(/C=C(\C#N)C(=O)Nc2cc(S(=O)(=O)N3CCOCC3)ccc2N2CCCC2)cc1,-7%,-9%
O=C(Nc1ccccc1Cl)c1ccc(C(=O)Nc2ccccc2Cl)cc1,-3%,-1%
COc1cccc(CNS(=O)(=O)c2ccc3[nH]c4c(c3c2)CCCCC4)c1,-17%,-9%
CCN(C(=O)CN1c2ccccc2CC1C)c1c(N)n(Cc2ccccc2)c(=O)[nH]c1=O (stereo not drawn),10%,-3%
O=C(NC(=O)N1CCN(c2cccc(Cl)c2)CC1)c1ccccc1,-17%,-10%
COc1ccc(CNC(=O)c2nn(-c3ccccc3)cc2OC)cc1,-2%,-14%
CC(C)CCNC(=O)NC(=O)CSc1nnc2ccccn12,-17%,i
Oc1cccc(/C=N/N(Cc2ccccc2)c2ccccc2)c1,?,?

# An excerpt from further up, for reference:
SMILES,VACV Venus inh,Vaccinia mCherry
COc1ccc(/C=C(\C#N)C(=O)Nc2cc(S(=O)(=O)N3CCOCC3)ccc2N2CCCC2)cc1,-7%,-9%
O=C(Nc1ccccc1Cl)c1ccc(C(=O)Nc2ccccc2Cl)cc1,-3%,-1%

# (cont.)
SMILES,VACV Venus inh,Vaccinia mCherry
N#C/C(=C\c1ccc(Cl)c([N+](=O)[O-])c1)c1ccccn1,-5%,-15%
Cn1c2nc3ccccc3c-2nc2ccccc21,8%,-3%
C[N+]1(CC(=O)c2c3ccccc3cc3ccccc23)CCOCC1,-7%,13%
CC1CCN(c2cc(N3CCOCC3)c(F)cc2[N+](=O)[O-])CC1,-21%,i
O=C1N=C2N(CCN3CCCCC3)c3ccccc3N2/C1=C\c1ccc([N+](=O)[O-])s1,-8%,-14%
COc1ccc([C@@H]2C[C@H](c3ccccc3)Oc3cc(OC)c(OC)c(OC)c32)cc1,-10%,2%
COc1ccc(C(c2nnnn2-c2ccc3c(c2)OCCO3)N2CCC(n3c(=O)[nH]c4ccccc43)CC2)cc1 (stereo not drawn),?,-25%
Cc1ccc(C)c(S(=O)(=O)Nc2cc3c4c(c2)CCN4C(=O)CC3)c1,-16%,-6%
OCC1(Cc2ccc(Cl)cc2)CCN(Cc2ccc(Oc3ncccn3)cc2)CC1,-21%,i
COc1ccc(NC(=O)c2ccc3c(c2)CCN3S(=O)(=O)c2ccc(C)cc2)cc1Cl,-8%,-16%
O=C1N=C(N2CCCC2)S/C1=C\c1ccccc1,-29%,?
O=C(CN1CCN(S(=O)(=O)c2ccc(Cl)cc2)CC1)Nc1ccc2c(c1)OCO2,-17%,-16%
COc1ccc(S(=O)(=O)NNC(=O)C2CC(c3cccnc3)=NO2)cc1 (stereo not drawn),-8%,-3%
C=CC[C@@H](CC(=O)N[C@H](CO)Cc1ccccc1)C(=O)N[C@@H](COC(=O)[C@@H](CC=C)Cc1ccc(F)cc1)Cc1c[nH]c2ccccc12,-9%,7%
COC(=O)CN(c1ccc(C)cc1)S(=O)(=O)c1ccc2c(c1)n(C)c(=O)c(=O)n2C,6%,.
O=C(Cc1ccc(Cl)cc1Cl)NC1CCCCCC1,-13%,-25%
CC(C)CNC(=O)C1(C)CCCN1C(=O)c1ccc2ccccc2n1 (stereo not drawn),8%,-15%
Cc1cccc(N)c1-c1c(C)cccc1N,-7%,-14%
O=C(COc1ccccc1)NCC(=O)Nc1cccc(S(=O)(=O)NC2=NCCC2)c1,-6%,i
CCC1=Nc2cc(C(=O)NCCN(CC)CC)ccc2Sc2ccccc21,-11%,-12%
CC(C)(C)C(=O)Nc1ccc(C(=O)N/N=C/c2ccccc2OC(=O)c2ccc(Cl)cc2)cc1,?,7.9µM*
Cc1ccc(-c2nc(Cn3c(SCc4ccc(F)cc4)nc4cccnc43)c(C)o2)cc1,?,-6%
O=C(OCc1nc(-c2ccccc2Cl)no1)c1ccco1,-8%,i
CCOC(=O)C1(CCOC)CCN(CC(C)Cc2ccc3c(c2)OCO3)CC1 (stereo not drawn),-3%,-13%
O=C(Nc1cccc(Cl)c1)c1cnc2sc(N3CCCC3)nn2c1=O,?,?

# High-throughput results as filed in PubChem BioAssay.
